Sfp PPTase inh: qHTS Assay for Inhibitors of Bacillus subtilis Sfp phosphopantetheinyl transferase (PPTase) | 4'-phosphopantetheinyl transferase ffp (Bacillus subtilis), Q9F4F7 | Biochemical Sfp PPTase activity, qHTS | Potency, µM, without a hit: max response, negative = inhibition, actives largely listed as inhibitors | actives 3.5% (n = 310,000) | AID 1490, 2009; active = well fitted inhibition curve with a large enough effect; inconclusive = small, poorly fitted or top-dose-only effect, or another doubt; inactive = no such curve, though single readings can be large or run the other way;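 also: the enzyme is Sfp with the accession as filed and its product quenches rhodamine fluorescence; potency is read from the fitted curve at half-maximal effect; 0% = enzyme reaction without inhibitor and -100% = no enzyme wells; top concentration of the series not given in the record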
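Compounds were incubated with enzyme (final 15 nM) for 15 min at room temperature before substrate addition started the reaction. Fluorescence at 525 nm excitation, 598 nm emission was recorded immediately and after 30 minutes.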
TRPV1 PAM: HTS Assay for Compounds that Act as Potentiators of the Vanilloid Receptor 1 | potentiation, % at 8.33 µM | AID 540277, 2011 | TRPV1-expressing cells, Fluo-8 calcium influx, capsaicin EC20 potentiation; host cell line not named in the record; control for the full effect not named in the record | actives 0.02% (n = 320,000) | Transient receptor potential cation channel subfamily V member 1 (Homo sapiens), Q8NER1; active means potentiation above 80%; inconclusive means 30% to 80%; inactive means below 30%; also: 0% is about no effect
Target sequence (Q8NER1 whole entry, looked up): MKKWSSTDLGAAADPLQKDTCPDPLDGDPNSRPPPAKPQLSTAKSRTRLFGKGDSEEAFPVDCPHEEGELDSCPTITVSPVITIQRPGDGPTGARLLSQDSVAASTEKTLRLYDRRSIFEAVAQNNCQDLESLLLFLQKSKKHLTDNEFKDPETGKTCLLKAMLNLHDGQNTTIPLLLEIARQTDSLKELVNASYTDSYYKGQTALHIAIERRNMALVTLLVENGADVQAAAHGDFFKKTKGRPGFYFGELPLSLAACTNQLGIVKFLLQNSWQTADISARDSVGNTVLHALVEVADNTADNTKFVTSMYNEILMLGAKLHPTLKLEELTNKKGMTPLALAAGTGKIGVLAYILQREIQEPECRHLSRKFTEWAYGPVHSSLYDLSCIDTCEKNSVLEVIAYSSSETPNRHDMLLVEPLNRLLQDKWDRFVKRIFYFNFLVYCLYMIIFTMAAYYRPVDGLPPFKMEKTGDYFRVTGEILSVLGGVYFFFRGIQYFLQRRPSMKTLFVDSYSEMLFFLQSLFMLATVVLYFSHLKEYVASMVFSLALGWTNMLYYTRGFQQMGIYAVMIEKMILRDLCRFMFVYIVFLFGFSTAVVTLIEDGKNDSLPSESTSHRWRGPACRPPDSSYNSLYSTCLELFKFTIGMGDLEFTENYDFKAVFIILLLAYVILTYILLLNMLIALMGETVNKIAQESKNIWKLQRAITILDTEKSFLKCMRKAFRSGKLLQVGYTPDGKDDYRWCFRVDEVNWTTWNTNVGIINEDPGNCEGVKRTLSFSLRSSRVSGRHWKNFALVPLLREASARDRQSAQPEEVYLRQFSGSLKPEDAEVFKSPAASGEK
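Cells expressing TRPV1 were dye-loaded with Fluo-8 and read kinetically: 10 s baseline, 3 min after compound (agonist portion), then 2 min after EC20 capsaicin (allosteric enhancer portion). Calcium-bound dye fluorescence at 480/520 nm.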
gsp agonist: qHTS for Agonist of gsp, the Etiologic Mutation Responsible for Fibrous Dysplasia/McCune-Albright Syndrome: qHTS; gsp mutant cells, cAMP HTRF, 30 min; control for the full effect not named in the record; Potency, µM (top dose mostly 76.9 µM), inactives show top-dose activation (cAMP increase), most hits filed as activators; actives 0.13% (n = 340,000); AID 624287, 2012; active = well fitted activation curve with a large enough effect; inconclusive = small, poorly fitted or top-dose-only effect, or another doubt; inactive = no such curve, though single readings can be large or run the other way; cell line not stated here;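 also: phosphodiesterase inhibitor Ro 20-1724 added with compounds to block cAMP breakdown; potency is read from the fitted curve at half-maximal effect; nearly all actives have a fitted effect of over 60% in size; about a fifth of the inactives were tested at one dose only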
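Cells stably selected in G418 were plated at 2000/well, grown 16-24 hr, then given compounds in DMSO with the PDE inhibitor […] (300 uM solution added) for 30 min at 37C; cAMP was read by HTRF.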
Menin MLL FP FL: qHTS Assay for Inhibitors Targeting the Menin-MLL Interaction in MLL Related Leukemias: Competition With Fluorescein Labeled MLL-derived Peptide | Fluorescence polarization, fluorescein-MLL peptide displacement from menin | 290,000 tested, under 10 active | FP activity change, % at 61.4 µM; inconclusive = falling polarisation curve, or a change in total fluorescence; inactive = total fluorescence flat and polarisation flat or rising; no compound was filed as active; the % refers to the polarisation; negative = inhibition;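 also: % of control where 0% means no effect; inhibitors lower the polarisation; unlabelled MLL peptide was the positive control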
ClpP mod: qHTS Assay for Activators of ClpP. purified B. subtilis ClpP, FRET peptide cleavage, 20 min. actives 1.9% (n = 340,000). AID 651965, 2013. ATP-dependent Clp protease proteolytic subunit (Bacillus subtilis (strain 168)), P80244. Potency, µM (doses to about 57.5 µM), for inactives: at the top dose activity change, negative = active; active = well fitted falling curve with a large enough effect; inconclusive = small, poorly fitted or top-dose-only effect; inactive = no such curve, though single readings can be large or run the other way; also: potency is read from the fitted curve at half-maximal effect; the source files actives as falling curves though it sought activators and does not explain the sign; nearly all actives have a fitted effect of over 65% in size; many hits overshoot -100%
Target sequence (P80244 whole entry, looked up): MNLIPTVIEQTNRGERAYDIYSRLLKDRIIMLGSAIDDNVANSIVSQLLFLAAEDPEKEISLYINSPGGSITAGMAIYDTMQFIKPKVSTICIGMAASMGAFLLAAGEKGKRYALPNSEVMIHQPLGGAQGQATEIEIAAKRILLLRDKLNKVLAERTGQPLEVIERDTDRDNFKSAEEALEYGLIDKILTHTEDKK
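Purified B. subtilis ClpP, 10 microg/mL final in Tris/HCl pH8 with KCl, BSA, glycerol and Tween-20, cleaved an Abz/nitrotyrosine-quenched decapeptide. Fluorescence (ex 320, em 430) was read at 0 and 20 min at room temperature. Delta was normalized to 5.8 microM ADEP and DMSO/no-enzyme controls.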
gsp antagonist: qHTS for Antagonists of gsp, the Etiologic Mutation Responsible for Fibrous Dysplasia/McCune-Albright Syndrome: qHTS | gsp-mutant cells, cAMP HTRF, 30 min; control for the full effect not named in the record | Potency, µM (doses to about 76.9 µM), for the others: top-dose activity change, negative = inhibition, actives largely listed as inhibitors | actives 0.4% (n = 340,000); active = falling curve of any shape with a large fitted effect; inconclusive = falling curve, mostly with a smaller effect; inactive = flat or rising curve; cell line not stated here;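 also: intracellular cAMP measured with PDE inhibitor Ro 20-1724 present during compound exposure; potency is read from the fitted curve at half-maximal effect; % is scaled to controls: 0 for no effect and ±100 for the full control effect; nearly all actives have a fitted effect of over 65% in size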
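HTRF cAMP read-out (cAMP-d2 plus anti-cAMP antibody-K in lysis buffer, 30 min RT). Before lysis, cells are exposed to compounds with […] for 30 min at 37C in DPBS containing Ca/Mg, BSA and Tween 20.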
CtBP-E1A inh: qHTS Assay for Inhibitors of the CtBP/E1A Interaction; actives 0.49% (n = 340,000); activity change, % (test concentration not listed); CtBP / adenovirus E1A interaction (AlphaScreen); AlphaScreen GST-E1A/His-CtBP binding, 1536-well; hits give low values; control for the full effect not named in the record; AID 651724, 2012; in the data active means activity change below about -65%; inconclusive means about -30% to -65%; inactive means above about -30%; also: % is scaled to controls: 0 for no effect and ±100 for the full control effect; compound concentration not given in the record
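Homogeneous bead-based format: GST-tagged E1A captured on glutathione donor beads, His-tagged CtBP on nickel acceptor beads; compounds precede bead addition by 2 h at 37 °C.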
* = called active by the depositor; & = joins results of further samples; [ ] = another dose, or the depositor's remark.

Cc1ccc(NC(=O)CCNC(=O)c2ccco2)cc1F was read as Sfp PPTase inh 10%, TRPV1 PAM -6, gsp agonist -11%[15.4 µM], Menin MLL FP FL 1.8, ClpP mod -16%, gsp antagonist 5% and CtBP-E1A inh -5.
NC(=S)N=Nc1c(O)n(CCCl)c2ccc(Br)cc12 was read as Sfp PPTase inh 9%, TRPV1 PAM -9, gsp agonist 1%[15.4 µM], Menin MLL FP FL 0.3, gsp antagonist -10% and CtBP-E1A inh inconclusive.
`COCC1CCN(Cc2cn(Cc3ccccc3)nc2-c2cc3ccccc3o2)CC1` gave Sfp PPTase inh 6%, TRPV1 PAM -2, gsp agonist -1%, Menin MLL FP FL 2.0, gsp antagonist 7% and CtBP-E1A inh -9.
For Cc1c(C(=O)NCc2ccc(F)cc2)c(-c2ccccc2)nn1-c1ccccc1 the results were Sfp PPTase inh 10%, TRPV1 PAM -3, gsp agonist 6%, Menin MLL FP FL -1.2, ClpP mod 0.2%, gsp antagonist -11% and CtBP-E1A inh 0.
`COc1ccc(CN2C(=O)CC(C(=O)NCCc3ccc(S(N)(=O)=O)cc3)SC2=Nc2ccccc2)cc1` (stereo not given) gave Sfp PPTase inh 3%, TRPV1 PAM 3, gsp agonist -49%, Menin MLL FP FL 4.1, gsp antagonist inconclusive and CtBP-E1A inh 1.
COc1ccc(C)cc1NC(=O)COC(=O)c1ccccc1SCC(=O)N1CCCC1 was read as TRPV1 PAM 4, gsp agonist -15%, ClpP mod 28µM*, gsp antagonist inconclusive and CtBP-E1A inh 9.
`Cc1nn(CCOc2ccccc2Cl)c(C)c1[N+](=O)[O-]` gave Sfp PPTase inh 5%, TRPV1 PAM inconclusive, gsp agonist -7%[15.4 µM], Menin MLL FP FL 0.5, gsp antagonist -4% and CtBP-E1A inh -11.
For CC(C)CCN(C(=O)C1CCCC1)c1c(N)n(Cc2ccccc2)c(=O)[nH]c1=O the results were TRPV1 PAM -1, gsp agonist -36%[inhibitor], ClpP mod -2.0%, gsp antagonist 11% and CtBP-E1A inh 3.
CC(Oc1ccc2c(c1)oc(=O)c1ccccc12)C(=O)NC(Cc1c[nH]c2ccc(O)cc12)C(=O)O (stereo not given) was read as Sfp PPTase inh 1%, TRPV1 PAM 13, Menin MLL FP FL -1.7, ClpP mod 4.7%, gsp antagonist 1% and CtBP-E1A inh -17.
For CCOC(=O)C1=C(c2ccccc2)Nc2ncnn2C1c1ccc(C(=O)O)cc1 (stereo not given) the results were Sfp PPTase inh 10%, TRPV1 PAM 3, gsp agonist -27%[15.4 µM], Menin MLL FP FL -0.5, gsp antagonist 11% and CtBP-E1A inh 6.
O=C(O)c1ccc(NC(=O)c2ccc(COc3ccc(Cl)cc3)o2)cc1 was read as Sfp PPTase inh 10%, TRPV1 PAM 15, gsp agonist -3%, Menin MLL FP FL 0.3, ClpP mod 2.0%, gsp antagonist -28% and CtBP-E1A inh 1.
CC(C)[C@@H]1NC(=O)c2cc([N+](=O)[O-])cc(I)c2NCCC[C@@H](C(=O)NC(CC(=O)O)C(N)=O)NC(=O)[C@H](CO)NC1=O (stereo not given in full) was read as Sfp PPTase inh 25%, TRPV1 PAM 1, gsp agonist 1%, Menin MLL FP FL 5.4, ClpP mod 1.3%, gsp antagonist 11% and CtBP-E1A inh 24.
Screening COc1ccc(Cc2nnc(NC(=O)C3CC(=O)N(c4ccccc4)C3)s2)cc1OC (stereo not given) returned Sfp PPTase inh 10%, TRPV1 PAM -1, gsp agonist -5%[15.4 µM], Menin MLL FP FL 0.7, gsp antagonist -2% and CtBP-E1A inh 0.
For CCn1cc(C2=NCC(C)O2)c2ccccc21 (stereo not given) the results were Sfp PPTase inh 10%, TRPV1 PAM 12, gsp agonist -46%[inhibitor], Menin MLL FP FL -0.8, ClpP mod -9.6%, gsp antagonist 6% and CtBP-E1A inh 0.
O=C(CCn1nc(-c2ccccc2)ccc1=O)N1CCN(c2ccccc2)CC1 was read as Sfp PPTase inh 5%, TRPV1 PAM 9, gsp agonist 10%, Menin MLL FP FL 2.8, gsp antagonist -12% and CtBP-E1A inh -10.
`Cc1ccc(C(N)=Nc2ccccc2)cc1` gave Sfp PPTase inh 11%, TRPV1 PAM -12, gsp agonist inconclusive, Menin MLL FP FL -3.6, ClpP mod -1.6% and gsp antagonist 2%.
Screening Cc1c(/C(O)=C2\C(=O)C(=O)N(CCN(C)C)C2c2cccs2)cnn1-c1ccccc1 (stereo not given) returned Sfp PPTase inh -13%, TRPV1 PAM -7, gsp agonist 22%, Menin MLL FP FL 3.2, ClpP mod -4.2%, gsp antagonist 10% and CtBP-E1A inh 4.
Screening COc1cc(OC)cc(-c2c(C#Cc3ccsc3)c3cc(-c4cccc5[nH]ccc45)ccc3n2C)c1 returned TRPV1 PAM -2, gsp agonist 6%, ClpP mod 4.8%, gsp antagonist 7% and CtBP-E1A inh -1.
For COc1cnc(NS(=O)(=O)c2ccc(N)cc2)nc1 the results were Sfp PPTase inh -3%&12%&19%, TRPV1 PAM -2, Menin MLL FP FL 1.8, ClpP mod -3.7%, gsp antagonist -12% and CtBP-E1A inh -21.
Cc1ccc(O)c(N=Cc2sc3ccccc3c2Cl)c1 was read as Sfp PPTase inh inconclusive, TRPV1 PAM 18, gsp agonist 16%[15.4 µM], Menin MLL FP FL 11, ClpP mod -17%, gsp antagonist -20% and CtBP-E1A inh -3.
Screening O=C(CN1C(=O)c2ccccc2C1=O)NCC(=O)OCC(=O)c1ccc(Cl)cc1 returned Sfp PPTase inh 4%, TRPV1 PAM 14, gsp agonist 2%, Menin MLL FP FL -5.7, ClpP mod -1.2%, gsp antagonist -2% and CtBP-E1A inh 1.
CCn1c(C2CC(=O)N(c3cc(C)cc(C)c3)C2)nc2ccccc21 (stereo not given) was read as Sfp PPTase inh 6%, TRPV1 PAM -14, gsp agonist inconclusive, Menin MLL FP FL 2.1, ClpP mod 0.4%, gsp antagonist -8% and CtBP-E1A inh 3.
CCOC(=O)c1nc2nc(C)cc(=O)n2[nH]1 was read as Sfp PPTase inh -14%, TRPV1 PAM 1, gsp agonist -28%, Menin MLL FP FL 2.3, ClpP mod -1.0%, gsp antagonist -1% and CtBP-E1A inh 7.
Screening CCCOC(=O)C1=C(C)NC2=C(C(=O)C(C(=O)OC)C(C)C2)C1c1ccc(N(CC)CC)cc1 (stereo not given) returned Sfp PPTase inh -11%, TRPV1 PAM -73, gsp agonist 12%, Menin MLL FP FL 2.7, ClpP mod -0.7%, gsp antagonist inconclusive and CtBP-E1A inh -10.
Cc1noc(C)c1S(=O)(=O)N(C)C[C@H]1Oc2ccc(NC(=O)Cc3ccccc3)cc2C(=O)N([C@H](C)CO)C[C@@H]1C was read as gsp agonist -18%, ClpP mod -0.8%, gsp antagonist -2% and CtBP-E1A inh 5.
`CCOc1cc2[nH]c(=O)n(Cc3cccc(OC)c3)c(=O)c2cc1OCC` gave Sfp PPTase inh -13%, TRPV1 PAM 17, gsp agonist 10%, Menin MLL FP FL 2.5, ClpP mod inconclusive, gsp antagonist -3% and CtBP-E1A inh 0.
`Fc1ccc(Cn2nnnc2C(c2ccc(Cl)cc2)N2CCSCC2)cc1` (stereo not given) gave Sfp PPTase inh -6%, TRPV1 PAM -3, gsp agonist -17%, Menin MLL FP FL 3.1, ClpP mod -0.4%, gsp antagonist 11% and CtBP-E1A inh 11.
For O=C(NCCc1csc(-c2cccnc2)n1)c1ccco1 the results were Sfp PPTase inh -5%, gsp agonist inconclusive, Menin MLL FP FL -1.2, ClpP mod -23%, gsp antagonist -2% and CtBP-E1A inh -3.
Screening CCSc1oc(-c2ccccc2)nc1S(=O)(=O)c1ccccc1 returned Sfp PPTase inh -19%, TRPV1 PAM 21, gsp agonist -4%, Menin MLL FP FL 2.0, ClpP mod -9.3%, gsp antagonist -28% and CtBP-E1A inh 1.
COc1ccc(OCCSCc2nnc(NC(=O)Nc3ccc(Cl)cc3)s2)cc1 was read as Sfp PPTase inh 18%, TRPV1 PAM 1, gsp agonist -3%, ClpP mod 2.7%, gsp antagonist 16% and CtBP-E1A inh 0.
CC1CCN(CC(=O)NCc2ccco2)CC1 was read as Sfp PPTase inh 10%, TRPV1 PAM -1, gsp agonist 6%[15.4 µM], Menin MLL FP FL -3.6, gsp antagonist -10% and CtBP-E1A inh 11.
`COc1cc(NC(=O)CSc2nnc(Cn3nnc4ccccc43)n2C)cc(OC)c1` gave Sfp PPTase inh 15%, TRPV1 PAM 20, gsp agonist -18%, Menin MLL FP FL -0.5, ClpP mod 0.3%, gsp antagonist 9% and CtBP-E1A inh -2.
O=C(COc1ccc(F)cc1Br)NCC1(N2CCCCC2)CCCCC1 was read as gsp agonist 5%, gsp antagonist 3% and CtBP-E1A inh 2.
For CN(C)C(=O)/C(C#N)=C\c1cc(Br)c(Sc2ccc(Cl)cc2)o1 the results were Sfp PPTase inh -23%, TRPV1 PAM 4, gsp agonist 7%[15.4 µM], ClpP mod -3.4%, gsp antagonist 6% and CtBP-E1A inh 0.
O=C(NC1CCCCCC1)C1CCN(S(=O)(=O)c2ccc(F)cc2)CC1 was read as Sfp PPTase inh -12%, TRPV1 PAM -20, gsp agonist 2%, Menin MLL FP FL -2.6, ClpP mod -0.4%, gsp antagonist 1% and CtBP-E1A inh 5.
Screening Cc1ccc(CCN2CC(C(=O)N3CCN(c4ccc(F)cc4)CC3)CC2=O)cc1 (stereo not given) returned Sfp PPTase inh 9%, TRPV1 PAM 3, gsp agonist -64%[inhibitor], Menin MLL FP FL 3.9, ClpP mod 0.1%, gsp antagonist -6% and CtBP-E1A inh 3.

Screens as filed in PubChem BioAssay.
